Compound activity as filed in PubChem.
Menin-MLL FL inh = menin-MLL binding inhibition, fluorescein peptide. Fluorescence polarization, fluorescein-MLL peptide displacement from menin. FP activity change, % at 61.4 µM. 290,000 tested, under 10 active. AID 1766; inconclusive = falling polarisation curve, or a change in total fluorescence; inactive = total fluorescence flat and polarisation flat or rising; no compound was filed as active; the % refers to the polarisation; negative = inhibition;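 also: % of control where 0% means no effect; inhibitors lower the polarisation; unlabelled MLL peptide was the positive control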
Sfp inh = Sfp phosphopantetheinyl transferase inhibition; Potency, µM, inactives show max response, negative = inhibition, hits mostly inhibitors; Q9F4F7; Biochemical Sfp PPTase activity, qHTS; 3.5% of 310,000 active; active = well fitted inhibition curve with a large enough effect; inconclusive = small, poorly fitted or top-dose-only effect, or another doubt; inactive = no such curve, though single readings can be large or run the other way;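 also: the enzyme is Sfp with the accession as filed and its product quenches rhodamine fluorescence; potency is read from the fitted curve at half-maximal effect; 0% = enzyme reaction without inhibitor and -100% = no enzyme wells; top concentration of the series not given in the record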
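Step 1, compound plus 15 nM Sfp-PPTase, 15 min, room temperature. Step 2, add rhodamine-CoA (5 uM) and BHQ-2-YbbR (12.5 uM). Step 3, read 525/598 nm fluorescence at 0 and 30 min.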
PINK1 expr mod = changes PINK1 expression; PINK1 immunofluorescence, high-content cytometry, 24 h; Potency, µM (doses to about 76.6 µM), for inactives: at the top dose activation (PINK1 increase), hits mostly activators; 0.2% of 410,000 active; AID 624263; active = well fitted activation curve with a large enough effect; inconclusive = small, poorly fitted or top-dose-only effect; inactive = flat fitted curve, though single readings scatter; cell line not stated here;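 also: potency is read from the fitted curve at half-maximal effect; % of control where 0% means no effect; nearly all actives have a fitted effect of over 65% in size; a mitochondrial uncoupler was the plate control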
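Readout is PINK1 immunofluorescence, quantified alongside mitochondrial, cell and nuclear markers by laser-scanning microplate cytometry. Cells from a stable line were exposed to compound titrations (5 concentrations) for 24 hours, with CCCP controls.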
TRPV1 potentiator = enhances activation of the human vanilloid receptor TRPV1. Q8NER1. TRPV1-expressing cells, Fluo-8 calcium influx, capsaicin EC20 potentiation; host cell line not named in the record; control for the full effect not named in the record. potentiation, % at 8.33 µM. 0.02% of 320,000 active. AID 540277; active means potentiation above 80%; inconclusive means 30% to 80%; inactive means below 30%; also: 0% is about no effect
Target sequence (Q8NER1 whole entry, looked up): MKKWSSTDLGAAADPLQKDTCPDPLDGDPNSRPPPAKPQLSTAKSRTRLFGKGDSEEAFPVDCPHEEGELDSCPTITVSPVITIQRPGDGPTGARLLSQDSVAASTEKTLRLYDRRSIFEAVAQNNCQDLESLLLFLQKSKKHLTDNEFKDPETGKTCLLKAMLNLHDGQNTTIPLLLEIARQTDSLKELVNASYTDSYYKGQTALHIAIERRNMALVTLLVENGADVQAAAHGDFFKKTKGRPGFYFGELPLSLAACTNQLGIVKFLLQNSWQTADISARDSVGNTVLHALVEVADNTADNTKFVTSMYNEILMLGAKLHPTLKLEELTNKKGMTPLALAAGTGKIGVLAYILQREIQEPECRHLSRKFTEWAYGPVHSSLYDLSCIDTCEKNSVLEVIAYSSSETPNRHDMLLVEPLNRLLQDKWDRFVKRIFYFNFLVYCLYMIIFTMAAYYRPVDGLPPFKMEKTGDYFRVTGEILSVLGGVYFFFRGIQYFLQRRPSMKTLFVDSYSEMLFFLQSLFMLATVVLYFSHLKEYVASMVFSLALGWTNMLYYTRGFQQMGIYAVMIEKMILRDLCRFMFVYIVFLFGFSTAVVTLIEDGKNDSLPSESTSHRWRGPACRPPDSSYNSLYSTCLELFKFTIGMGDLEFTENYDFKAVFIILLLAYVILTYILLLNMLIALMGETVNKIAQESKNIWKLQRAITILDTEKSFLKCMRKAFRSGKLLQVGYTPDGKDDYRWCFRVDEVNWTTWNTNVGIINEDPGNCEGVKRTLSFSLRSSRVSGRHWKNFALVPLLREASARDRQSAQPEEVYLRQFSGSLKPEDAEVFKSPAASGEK
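TRPV1-expressing cells were cultured overnight at 35.5C and loaded with Fluo-8 calcium dye for 40 to 90 min at room temperature. After a 10 s baseline, compound was added and calcium influx was read kinetically for 3 min (ex 480/em 520 nm).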
The depositor's hits bear a star; ? = inconclusive; / = no result given; & = joins results of further samples; [ ] = dose if it differs, or a comment. A portion of the library, so the mix of outcomes need not match the whole.

Letter code: A = Menin-MLL FL inh; B = Sfp inh; C = PINK1 expr mod; D = TRPV1 potentiator
O=C(O)CN(CCN(CC(=O)O)CC(=O)O)CCN(CC(=O)O)CC(=O)O
  A: -5.9; B: 23%&-4%; C: /; D: /
CS(C)(=O)=O
  A: 6.1; B: 7%; C: /; D: /
c1ccc2c(c1)Cc1cc3cc4c(cc3nc1-2)OCO4
  A: -1.1; B: -17%; C: /; D: /
COC(=O)[C@@]1(Cc2ccc(OC)cc2)[C@H]2c3cc(C(=O)N(C)C)n(Cc4cc(C)n(C)n4)c3C[C@H]2CN1C(=O)c1ccccc1
  A: -4.6; B: 6%; C: /; D: /
CC(=O)OC[C@@H]1O[C@H](C/C=N\O[C@@H]2O[C@H](COC(C)=O)[C@@H](OC(C)=O)[C@H](OC(C)=O)[C@H]2OC(C)=O)C=C[C@@H]1OC(C)=O
  A: -3.1[11.7 µM]; B: -5%; C: /; D: /
COC(=O)[C@@H]1[C@@H]2C[C@H]3c4[nH]c5cc(OC)ccc5c4CCN3C[C@@H]2C[C@H](OC(=O)c2cc(OC)c(OC)c(OC)c2)[C@H]1OC
  A: ?; B: 9%; C: /; D: /
CC(=O)OCC1OC(C#CC(C)(C)C)C=CC1OC(C)=O (stereo unspecified)
  A: 0.1&-4.3[11.7 µM]; B: ?; C: /; D: /
CC[C@](N)(CCC(=O)O)C(=O)O
  A: 31[activator]; B: -24%; C: /; D: /
C/C=C(\C)C(=O)O[C@H]1CC(C)=C2C(=O)C=C(C)C2[C@@H]2OC(=O)[C@@](C)(OC(=O)C=C(C)C)C21 (stereo partly specified)
  A: 2.0; B: -27%; C: /; D: /
CC(=O)OC[C@@H]1O[C@@H](O/N=C2/C[C@@H](O)[C@@H](O)[C@@H]3[C@@H]4C(=O)N(Cc5ccc6c(c5)OCO6)C(=O)[C@H]4CC[C@H]23)[C@H](OC(C)=O)[C@H](OC(C)=O)[C@@H]1OC(C)=O
  A: 3.4[11.7 µM]; B: 20%; C: /; D: /

Carrying on:
Letter code: A = Menin-MLL FL inh; B = Sfp inh; C = PINK1 expr mod; D = TRPV1 potentiator
C[C@@H]1CCc2cc(F)cc3c(=O)c(C(=O)O)cn1c23
  A: -0.3[24.8 µM]; B: 3%; C: /; D: /
Cc1ccc(C[C@H](C(=O)O)N2C(=O)c3ccc(C(=O)O)cc3C2=O)cc1
  A: -2.2; B: 0%; C: /; D: /
C=C(C(C)=O)C(O)c1ccc2ccccc2c1 (stereo unspecified)
  A: -0.6; B: -17%; C: /; D: /
NC[C@@H]1O[C@@H](O[C@H]2[C@H](O)[C@@H](O[C@@H]3O[C@@H](CO)[C@H](O)[C@@H](N)[C@@H]3O)[C@H](N)C[C@@H]2N)[C@@H](O)[C@H](O)[C@H]1O
  A: -0.3; B: 2%; C: /; D: /
COC(=O)C[C@H]1c2ccccc2C2=C(C[C@@H](C)[C@H]3C(=O)NC(=O)[C@@H]23)N1C(=O)OC
  A: 0.0[11.7 µM]; B: -7%; C: /; D: /
O=C(OOC(=O)c1ccccc1)c1ccccc1
  A: -7.4&-2.5; B: 0%&14%; C: /; D: /
Brc1ccc(-c2ccc(C3Nc4cccc5cccc(c45)N3)o2)cc1
  A: /; B: /; C: /; D: 0
CCN(c1ccccc1)S(=O)(=O)c1cc2c3c(c1)CCN3C(=O)CC2
  A: /; B: /; C: /; D: -15
CN(C)S(=O)(=O)c1cccc(NC(=O)c2ccc3c(c2)S(=O)(=O)N=C2CCCCCN23)c1
  A: /; B: /; C: /; D: ?
N#Cc1c2ccc([N+](=O)[O-])cc2[n+]([O-])n1-c1ccccc1
  A: /; B: /; C: /; D: -8

Further structures:
Letter code: A = Menin-MLL FL inh; B = Sfp inh; C = PINK1 expr mod; D = TRPV1 potentiator
C[C@@H]1O[C@@H](OC2C(O)C(OCCc3ccc(O)c(O)c3)OC(CO)C2OC(=O)/C=C/c2ccc(O)c(O)c2)[C@H](O)[C@H](O)[C@H]1O (stereo partly specified)
  A: /; B: /; C: /; D: 13
C#CCOCCOCCOCCNc1nc(N2CCN(C(=O)CCCCCCCCCCNC(=O)[C@H](CCCCN)n3cc(C)nn3)CC2)nc(N2CCN(C(=O)CCCCCCCCCCNC(=O)[C@@H]([C@H](C)CC)n3cc(CCCCCN)nn3)CC2)n1
  A: /; B: /; C: /; D: 5
O=S(=O)(O)Oc1c[nH]c2ccccc12
  A: /; B: /; C: /; D: 5
O=C1C(Cc2ccccc2)Nc2ncnc(N3CCc4ccccc4C3)c2N1Cc1ccc(Br)cc1 (stereo unspecified)
  A: /; B: /; C: /; D: 28
CC[C@H](C)[C@@H](C(=O)NCCCCCCCCCCC(=O)N1CCN(C(=O)OC(C)(C)C)CC1)n1cc(CCCCN=C(NC(=O)OC(C)(C)C)NC(=O)OC(C)(C)C)nn1
  A: /; B: /; C: /; D: 12
COc1ccc(C2Nc3ccccc3C(=O)N2Cc2ccccc2)cc1COc1ccc(Cl)cc1Cl (stereo unspecified)
  A: /; B: /; C: /; D: 0
O=C(NN1C(=O)/C(=C/c2cc([N+](=O)[O-])ccc2O)SC1=S)c1ccccc1O
  A: /; B: /; C: /; D: 5
COc1cc(C2OC(=O)c3c2ccc(OC)c3OC)ccc1O (stereo unspecified)
  A: /; B: /; C: /; D: 1
C#CCOCCOCCOCCNc1nc(N2CCN(C(=O)CCCCCCCCCCNC(=O)[C@H]([C@@H](C)CC)n3cc(CCCCN=C(N)N)nn3)CC2)nc(N2CCN(C(=O)CCCCCCCCCCNC(=O)[C@H]([C@@H](C)CC)n3cc(CCCCN=C(N)N)nn3)CC2)n1
  A: /; B: /; C: /; D: 11
C/C(=C\c1ccccc1)C1Nc2cccc3cccc(c23)N1
  A: /; B: /; C: /; D: 3

(more compounds)
Letter code: A = Menin-MLL FL inh; B = Sfp inh; C = PINK1 expr mod; D = TRPV1 potentiator
COc1ccc(CN2C(=O)C(Cc3ccccc3)Nc3ncnc(N4CCc5ccccc5C4)c32)cc1 (stereo unspecified)
  A: /; B: /; C: /; D: -7
c1ccc2c(c1)-c1cccc3c1c-2cc1ccccc13
  A: /; B: /; C: /; D: -6
CC1(c2ccccc2)ON(c2ccccc2C(F)(F)F)C1=O (stereo unspecified)
  A: /; B: /; C: /; D: 2
O=C(COC(=O)c1cccc([N+](=O)[O-])c1)c1ccc2c(c1)OCO2
  A: /; B: /; C: /; D: -21
CSc1ccccc1OCc1cc(C(=O)N2CCC(c3ccncc3)CC2)no1
  A: /; B: 1%; C: /; D: -6
CN(C)[C@@H]1C(=O)C(C(=O)NCN2CCCC2)=C(O)[C@@]2(O)C(=O)C3=C(O)c4c(O)cccc4[C@@](C)(O)C3CC12 (stereo partly specified)
  A: /; B: 50µM*; C: /; D: -1
O=C(NC(=S)Nc1ccccc1N1CCCC1)c1ccccc1Br
  A: /; B: 18%; C: /; D: 20
COc1cc2c(cc1NC(=O)CSc1nc3ccc(C)cc3[nH]1)oc1ccccc12
  A: /; B: 2%; C: /; D: -7
CC(C)c1ccc(/C=C(\NC(=O)c2ccccc2)C(=O)NCCN2CCOCC2)cc1
  A: /; B: 7%; C: /; D: -6
O=C(Nc1ccc(S(=O)(=O)N2CCCCCC2)cc1)c1[nH]ncc1[N+](=O)[O-]
  A: /; B: 21%; C: /; D: 11

Other results follow.
Letter code: A = Menin-MLL FL inh; B = Sfp inh; C = PINK1 expr mod; D = TRPV1 potentiator
CCS(=O)(=O)C1=NN2C(=N)/C(=C\c3ccc(OS(=O)(=O)c4ccccc4)c(OC)c3)C(=O)N=C2S1
  A: /; B: -22%; C: /; D: 20
O=C(Nc1ccc(F)c(Cl)c1)Nn1cnnc1
  A: /; B: 12%; C: /; D: -3
CCOC(=O)C1(Cc2cccc(Cl)c2)CCCN(C(=O)CCN2CCCC2=O)C1 (stereo unspecified)
  A: /; B: 17%; C: /; D: 3
CC(c1cc2ccccc2s1)N(O)C(N)=O (stereo unspecified)
  A: /; B: -4%&13%; C: /; D: -1
CN1CCN(CC(=O)N/N=C\c2c[nH]c3ccccc23)CC1
  A: /; B: ?; C: /; D: 7
O=C(Cc1ccccc1[N+](=O)[O-])Nc1ccc(S(=O)(=O)N2CCCC2)cc1
  A: /; B: 11%; C: /; D: -9
CCOC(=O)C1=C(c2ccccc2)NC(=S)NC1c1ccc(Cl)c([N+](=O)[O-])c1 (stereo unspecified)
  A: /; B: -2%; C: /; D: -3
COc1cc(CNCCN2CCOCC2)ccc1OCc1c(Cl)cccc1Cl
  A: /; B: 11%; C: /; D: -5
NC(=O)[C@@H]1CCCNc2c(I)cc([N+](=O)[O-])cc2C(=O)N[C@@H](CCCN=C(N)N)C(=O)N[C@@H](CCCN=C(N)N)C(=O)N1
  A: /; B: -5%; C: /; D: ?
COC(=O)C1=C(C)NC(C)=C(C(=O)OCC2CCCO2)C1c1ccc(Cl)c([N+](=O)[O-])c1 (stereo unspecified)
  A: /; B: -27%; C: /; D: -13

Some values from above.
`CCOC(=O)C1=C(c2ccccc2)NC(=S)NC1c1ccc(Cl)c([N+](=O)[O-])c1` (stereo unspecified) in TRPV1 potentiator is entered as -3
`O=C(Cc1ccccc1[N+](=O)[O-])Nc1ccc(S(=O)(=O)N2CCCC2)cc1` in Sfp inh is entered as 11%

The list goes on:
Letter code: A = Menin-MLL FL inh; B = Sfp inh; C = PINK1 expr mod; D = TRPV1 potentiator
CCCn1c(=O)c(C(=O)NNC(=O)c2ccccc2[N+](=O)[O-])c(O)c2ccccc21
  A: /; B: -3%; C: /; D: -4
COc1cc(/C=C2\C(=N)N3N=C(S(C)(=O)=O)SC3=NC2=O)ccc1OS(=O)(=O)c1ccccc1
  A: /; B: -6%; C: /; D: 3
Cn1cc([N+](=O)[O-])c(C(=O)NC2CCCCCCC2)n1
  A: /; B: 4%; C: /; D: 0
C=CCC1(CC=C)CCCN1C(=O)c1cc(COc2cncc(Cl)c2)on1
  A: /; B: 1%; C: /; D: -3
Cc1ccc(C(=O)NC2CCCc3c2cnn3-c2ccc(F)cc2F)cn1 (stereo unspecified)
  A: /; B: 16%; C: /; D: 0
O=C(/C=C/c1ccc2c(c1)OCO2)Nc1nc(-c2ccc(F)cc2)cs1
  A: /; B: 25%; C: /; D: 4
O=C(CSc1nnnn1-c1ccc(O)cc1)N1N=C(c2ccc3ccccc3c2)CC1c1ccccc1 (stereo unspecified)
  A: /; B: 7%; C: /; D: 1
O=S(=O)(Nc1ccc(O)c2ccccc12)c1ccc(Br)cc1
  A: /; B: -18%; C: /; D: 2
CCC1C(=O)NCCN1Cc1ccc2c(c1)CN(Cc1ccc(F)c(OC)c1)CCO2 (stereo unspecified)
  A: /; B: /; C: -0.7%; D: /
CN(C)CCCN1c2ccc([N+](=O)[O-])cc2CCc2cc([N+](=O)[O-])ccc21
  A: /; B: /; C: 1.6%; D: /

Further records:
Letter code: A = Menin-MLL FL inh; B = Sfp inh; C = PINK1 expr mod; D = TRPV1 potentiator
CCOC(=O)N1CCN(C(=O)c2ccc(-c3ccccc3OC)nc2N2CCC(N3CCCC(CO)C3)CC2)CC1 (stereo unspecified)
  A: /; B: /; C: -0.4%; D: /
Cc1ccc(NC(=O)CN2C(=O)N/C(=C\c3ccco3)C2=O)cc1
  A: /; B: /; C: 0.8%; D: /
CC(NC(=O)c1ccco1)c1nnc2n1CCN(Cc1cccc(Cl)c1)CC2 (stereo unspecified)
  A: /; B: /; C: -0.5%; D: /
COc1cccc(Cc2nc3cccnc3n2C2CCN(Cc3ccc(C)s3)CC2)c1
  A: /; B: /; C: -0.6%; D: /

Four of these compounds, set out differently:
Second line of a record: Menin-MLL FL inh, Sfp inh, PINK1 expr mod, TRPV1 potentiator
CCOC(=O)N1CCN(C(=O)c2ccc(-c3ccccc3OC)nc2N2CCC(N3CCCC(CO)C3)CC2)CC1 (stereo unspecified)
→ /, /, -0.4%, /
Cc1ccc(NC(=O)CN2C(=O)N/C(=C\c3ccco3)C2=O)cc1
→ /, /, 0.8%, /
CC(NC(=O)c1ccco1)c1nnc2n1CCN(Cc1cccc(Cl)c1)CC2 (stereo unspecified)
→ /, /, -0.5%, /
COc1cccc(Cc2nc3cccnc3n2C2CCN(Cc3ccc(C)s3)CC2)c1
→ /, /, -0.6%, /
